LANA-H2A inh – blocks KSHV LANA binding to histone H2A/H2B; cell-free LANA-H2A/H2B peptide, fluorescence polarization; Q9QR71; 0.6% of 320,000 active; inhibition, % (concentration not given with the values); in the data active = inhibition mostly above about 10%, no sharp cut-off; inactive = mostly below about 6.7%;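 also: stock transfer was 7.5 nL into about 10 µL; 0% = median of vehicle wells and 100% = median of positive control wells; one replicate is shown; the record names a cut of 25% in any replicate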
Target sequence (Q9QR71 whole entry, looked up): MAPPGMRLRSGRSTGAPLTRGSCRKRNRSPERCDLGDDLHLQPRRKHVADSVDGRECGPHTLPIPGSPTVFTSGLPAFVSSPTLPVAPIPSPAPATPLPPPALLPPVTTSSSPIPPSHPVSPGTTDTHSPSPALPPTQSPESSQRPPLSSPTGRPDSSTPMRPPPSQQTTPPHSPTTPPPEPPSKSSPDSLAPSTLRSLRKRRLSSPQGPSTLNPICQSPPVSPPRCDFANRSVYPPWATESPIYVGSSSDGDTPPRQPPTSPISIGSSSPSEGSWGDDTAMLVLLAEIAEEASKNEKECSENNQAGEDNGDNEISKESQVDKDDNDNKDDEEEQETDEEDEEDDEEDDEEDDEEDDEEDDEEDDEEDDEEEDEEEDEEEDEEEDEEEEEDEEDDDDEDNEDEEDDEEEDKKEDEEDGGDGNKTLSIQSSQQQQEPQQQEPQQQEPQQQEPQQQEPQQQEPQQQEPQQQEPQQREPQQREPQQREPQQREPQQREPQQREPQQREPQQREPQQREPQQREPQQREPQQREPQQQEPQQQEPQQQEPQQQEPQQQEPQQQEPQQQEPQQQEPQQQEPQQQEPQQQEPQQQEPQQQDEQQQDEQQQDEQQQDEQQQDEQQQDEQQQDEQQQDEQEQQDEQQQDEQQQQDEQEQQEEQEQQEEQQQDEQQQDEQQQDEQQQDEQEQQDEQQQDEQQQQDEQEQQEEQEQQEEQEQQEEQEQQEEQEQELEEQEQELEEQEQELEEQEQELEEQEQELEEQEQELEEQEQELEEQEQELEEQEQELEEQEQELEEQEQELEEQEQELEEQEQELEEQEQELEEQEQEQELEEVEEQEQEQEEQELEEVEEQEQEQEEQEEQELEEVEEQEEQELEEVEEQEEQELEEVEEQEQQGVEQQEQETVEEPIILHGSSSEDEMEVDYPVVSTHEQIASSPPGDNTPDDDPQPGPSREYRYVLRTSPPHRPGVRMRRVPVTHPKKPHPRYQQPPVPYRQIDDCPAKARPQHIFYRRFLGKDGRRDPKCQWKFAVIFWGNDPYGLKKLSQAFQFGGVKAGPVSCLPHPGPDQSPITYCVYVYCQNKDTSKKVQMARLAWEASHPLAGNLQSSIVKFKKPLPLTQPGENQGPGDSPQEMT
RanGTP-Impb inh – inhibitors of RanGTP-importin-beta interaction, primary screen, biochemical, FRET, CFP-Ran, YFP-importin-beta, homogeneous | cell-free CFP-Ran/YFP-importin-beta FRET ratio | 1.1% of 300,000 active | AID 2216 | inhibition, % (concentration not given with the values);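 active = most replicates above 15%; inconclusive = exactly half above 15%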;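 also: 0% = DMSO wells and 100% = Ran loaded with GDP instead of GTP; wells of about 40 µL received 100 nL stock; the first replicate is given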
UCH37 inh – inhibitors of human deubiquitinating enzyme UCH37. inhibition, % (concentration not given with the values). Q9Y5K5. AID 588478. purified proteasome/UCH37, Ub-AMC cleavage fluorescence. 0.33% of 330,000 active;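 active = mean of two replicates above 20%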;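 also: 0% = compound-free wells with enzyme and 100% = wells lacking proteasome; stock transfer was 100 nL into about 20 µL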
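Material: Human UCH37 enzyme supplied as purified proteasome complex | Schedule: 30 min compound-proteasome preincubation then 25 min substrate reaction, room temperature | Detection: AMC fluorescence from Ub-AMC cleavage, excitation 355 nm, emission 460 nm | Benchmarks: Wells without proteasome as full block, compound-free enzyme plus substrate as uninhibited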
Beta apoptosis – beta cell apoptosis inhibition | 0.8% of 300,000 active | INS-1E cytokine-induced death, ATP luminescence, 48 h; percent of positive-control rescue, neutral wells zero | protection from apoptosis, % (concentration not given with the values) | AID 435005;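 active = all replicates at 75% or more, or half of them and the mean; inconclusive = half reach 75% but not the mean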;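 also: 0% = cytokine-treated negative control wells and 100% = positive control rescue; higher means more ATP so stronger rescue from cytokine killing; wells of about 40 µL received 100 nL stock; the first replicate is given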
Calb FLC – affects C. albicans growth with fluconazole; C. albicans CaCi-2 (fluconazole-resistant clinical isolate) + fluconazole, Alamar Blue growth, 48 h; growth inhibition, % (concentration not given with the values); 0.57% of 300,000 active;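 active = most replicates above 75%; inconclusive = exactly half above 75%; inactive = most below 75%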;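 also: all wells also contain fluconazole at 8 µg/ml as a sub-toxic cotreatment; 0% = median of DMSO wells and 100% = median of geldanamycin control wells; wells of about 8 µL received 7.5 nL stock; the first replicate is given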
T cruzi inh – blocks replication of Trypanosoma cruzi. T. cruzi beta-gal in NIH3T3, luminescence, 90 h. inhibition, % (no concentration beside the values). 1.4% of 300,000 active. AID 1885;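 active = mean inhibition across valid replicates above about 55%, limit read from the data; inconclusive = mean below that limit but half or more replicates reach it; inactive = mean below it, under half of replicates reach it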;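 also: signal also drops with host cell toxicity which is not excluded here; 0% = plate median of DMSO wells and 100% = zero luminescence signal; higher percent means less beta-gal luminescence so fewer parasites; stock transfer was 50 nL into about 50 µL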
Beta2AR agonist – human beta-2 adrenergic receptor agonism by FAP; Am2.2-beta2AR cells, FAP receptor internalization, flow cytometry; reference of the scale not given here; response, % (no concentration beside the values); 0.43% of 340,000 active; AID 504454;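 active = response above a set limit, near 3 SD of response in nonfluorescent compounds, cut at about 42% in these data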;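 also: stock transfer was 100 nL into about 11 µL; a reference agonist was the positive control; negative values mostly stem from fluorescent compounds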
Bfl-1 A1 inh – inhibitors of the anti-apoptotic protein A1, read as caspase activation; MEF A1-2A-BIM cells, Caspase-Glo 3/7 luminescence, 3 h; percent of clofoctol response, vehicle zero; caspase activation, % (test concentration not listed); 0.066% of 330,000 active;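 active = over half of replicate activation scores above 10%, or exactly half above 10 with the replicate mean above 10; inconclusive = replicate mean below 10 yet half the replicates above 10; inactive = over half of replicates below 10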;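 also: wells of about 30 µL received 50 nL stock; many hits fall short of the cut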
Active calls of the source: *.

Results for COC(=O)c1[nH]c2cccc(OC)c2c1NC(=O)CCN1CCC(C)CC1 ?
LANA-H2A inh: -2.7; RanGTP-Impb inh: 3.3; UCH37 inh: -6.7; Beta apoptosis: -1; Calb FLC: 14; T cruzi inh: 3; Beta2AR agonist: 2; Bfl-1 A1 inh: 0.2

What do the screens show for `Cc1ccccc1OCC(=O)NNC(=O)CCc1ccccc1`?
LANA-H2A inh: -3.9; RanGTP-Impb inh: 3.2; UCH37 inh: 5.0; Beta apoptosis: -10; Calb FLC: 0; T cruzi inh: -4; Beta2AR agonist: 0; Bfl-1 A1 inh: -0.1

How did COc1cccc(CNc2ccc3c(c2)ncn3C)c1OC do in these assays?
LANA-H2A inh: -1.9; RanGTP-Impb inh: 6.6; UCH37 inh: -5.6; Beta apoptosis: -4; Calb FLC: -25; T cruzi inh: 21; Beta2AR agonist: -2; Bfl-1 A1 inh: 0.5

What do the screens show for `CCOC(=O)C1CCN(Cc2cc(C(C)C)c(O)c(C(C)C)c2)CC1`?
LANA-H2A inh: -0.1; RanGTP-Impb inh: inconclusive; UCH37 inh: 2.1; Beta apoptosis: -20; Calb FLC: 20; T cruzi inh: 15; Beta2AR agonist: -1; Bfl-1 A1 inh: 0.0

How did CC(=O)c1cccc(NS(=O)(=O)c2cc3c(cc2C)NC(=O)CO3)c1 do in these assays?
LANA-H2A inh: 3.8; RanGTP-Impb inh: 0.3; UCH37 inh: 2.9; Beta apoptosis: 0; Calb FLC: -10; T cruzi inh: 1; Beta2AR agonist: 7; Bfl-1 A1 inh: 0.1

What do the screens show for `CN(CC(=O)N1CCc2ccccc21)S(=O)(=O)c1ccc(Br)s1`?
LANA-H2A inh: 4.0; RanGTP-Impb inh: 3.4; UCH37 inh: 2.1; Beta apoptosis: 0; Calb FLC: -4; T cruzi inh: -2; Beta2AR agonist: 4; Bfl-1 A1 inh: 0.3

How did O=c1[nH]c2ccsc2c(=O)n1-c1ccc(F)c(Cl)c1 do in these assays?
LANA-H2A inh: 0.1; RanGTP-Impb inh: -2.2; UCH37 inh: 5.3; Beta apoptosis: 5; Calb FLC: 7; T cruzi inh: -23; Beta2AR agonist: -8; Bfl-1 A1 inh: -0.7

How did CCOC(=O)N1CCN(C(=O)c2cn(CC)c3ccc(S(=O)(=O)N4CC(C)CC(C)C4)cc3c2=O)CC1 (configuration not stated) do in these assays?
LANA-H2A inh: -3.0; RanGTP-Impb inh: 1.7; UCH37 inh: 3.9; Beta apoptosis: -8; Calb FLC: -17; T cruzi inh: 13; Beta2AR agonist: 2; Bfl-1 A1 inh: -0.4

What do the screens show for `CC1=C(C(=O)Nc2cc(C(=O)N3CCC(C)CC3)ccc2C)SCCO1`?
LANA-H2A inh: -5.4; RanGTP-Impb inh: 1.1; UCH37 inh: 2.0; Beta apoptosis: -5; Calb FLC: 4; T cruzi inh: 10; Beta2AR agonist: 0; Bfl-1 A1 inh: 0.2

Results for CCCn1nnnc1SCC(=O)NCc1ccc(OC)cc1 ?
LANA-H2A inh: 1.2; RanGTP-Impb inh: -1.5; UCH37 inh: -0.4; Beta apoptosis: 0; Calb FLC: -8; T cruzi inh: -21; Beta2AR agonist: -4; Bfl-1 A1 inh: -0.1

How did CC(=O)Nc1ccc(NC(=O)C(C)OC(=O)CCc2c[nH]c3ccccc23)cc1 (configuration not stated) do in these assays?
LANA-H2A inh: -8.7; RanGTP-Impb inh: 0.8; UCH37 inh: 4.3; Calb FLC: -8; T cruzi inh: -2; Beta2AR agonist: -3; Bfl-1 A1 inh: -0.8

Results for Cc1ccccc1CC(=O)NC1CCCCCC1 ?
LANA-H2A inh: -4.5; RanGTP-Impb inh: inconclusive; UCH37 inh: 2.5; Beta apoptosis: 8; Calb FLC: 27; T cruzi inh: -5; Beta2AR agonist: 0; Bfl-1 A1 inh: 0.0

How did Cc1nnc(SCC(=O)N2CCN(c3ccccc3)CC2)n(N)c1=O do in these assays?
LANA-H2A inh: -0.9; RanGTP-Impb inh: 1.8; UCH37 inh: 3.9; Beta apoptosis: -8; Calb FLC: 8; T cruzi inh: -1; Beta2AR agonist: -4; Bfl-1 A1 inh: 0.9

What do the screens show for `Cc1ccccc1CC1(CO)CCCN(C(=O)CCN2CCCO2)C1` (configuration not stated)?
LANA-H2A inh: -0.2; RanGTP-Impb inh: inconclusive; UCH37 inh: 1.8; Beta apoptosis: -7; Calb FLC: -2; T cruzi inh: -2; Beta2AR agonist: 2; Bfl-1 A1 inh: -0.1

How did CC(C)C(=O)Nc1cccc(-c2cnc3ccccc3n2)c1 do in these assays?
LANA-H2A inh: 0.2; RanGTP-Impb inh: 8.9; UCH37 inh: 1.0; Beta apoptosis: -3; Calb FLC: 29; T cruzi inh: 7; Beta2AR agonist: -21; Bfl-1 A1 inh: -1.7

How did CCc1ccc(NC(=O)N(C2CCC(C)CC2)C2CCN(C(C)=O)CC2)cc1 (configuration not stated) do in these assays?
LANA-H2A inh: -4.1; RanGTP-Impb inh: -2.8; UCH37 inh: 1.6; Beta apoptosis: 0; Calb FLC: -5; T cruzi inh: 5; Beta2AR agonist: 12; Bfl-1 A1 inh: 1.0

Results for CN(Cc1ccccc1)S(=O)(=O)c1cccc(C(=O)O)c1 ?
LANA-H2A inh: -3.2; RanGTP-Impb inh: -2.2; UCH37 inh: 0.7; Beta apoptosis: 2; Calb FLC: -3; T cruzi inh: -9; Beta2AR agonist: -3; Bfl-1 A1 inh: 0.8

What do the screens show for `C=CCn1c(SCc2csc(C)n2)nc2sc3c(c2c1=O)CCCC3`?
LANA-H2A inh: -0.9; RanGTP-Impb inh: 3.8; Beta apoptosis: 4; Calb FLC: 0; T cruzi inh: 25; Beta2AR agonist: -10; Bfl-1 A1 inh: 0.0

Results for CCOC(=O)N1CCN(C(=O)COc2ccccc2Cl)CC1 ?
LANA-H2A inh: -4.7; RanGTP-Impb inh: -0.5; UCH37 inh: 2.5; Beta apoptosis: -3; Calb FLC: inconclusive; T cruzi inh: 3; Beta2AR agonist: -4; Bfl-1 A1 inh: -0.6

What do the screens show for `CNC(=S)N/N=C(\C)c1ccc(Cl)s1`?
LANA-H2A inh: 2.5; RanGTP-Impb inh: -2.7; Beta apoptosis: 1; Calb FLC: -36; T cruzi inh: 6; Beta2AR agonist: -3; Bfl-1 A1 inh: 0.4

Results for CCOc1cccc(C2C(C#N)=C(N)Oc3cc(C)oc(=O)c32)c1OCC (configuration not stated) ?
LANA-H2A inh: -1.5; RanGTP-Impb inh: 2.1; Beta apoptosis: -8; Calb FLC: 6; T cruzi inh: -17; Beta2AR agonist: 3; Bfl-1 A1 inh: inconclusive

How did O=S(=O)(c1ccc(Cl)cc1)n1c(Cc2ccccc2)nc2ccccc21 do in these assays?
LANA-H2A inh: 2.3; RanGTP-Impb inh: 0.9; UCH37 inh: 1.9; Beta apoptosis: -1; Calb FLC: 5; T cruzi inh: -13; Beta2AR agonist: 11; Bfl-1 A1 inh: -1.2

What do the screens show for `Cc1cccc(NC(=S)NCCC(C)C)c1`?
LANA-H2A inh: -1.0; RanGTP-Impb inh: -0.7; UCH37 inh: 4.9; Beta apoptosis: -3; Calb FLC: -16; T cruzi inh: -10; Beta2AR agonist: -6; Bfl-1 A1 inh: -0.5

What do the screens show for `CSCC[C@H](NC(=O)[C@H](Cc1ccccc1)n1c(=O)[nH]c2ccccc2c1=O)C(=O)N1CCC[C@@H]1C(=O)O`?
LANA-H2A inh: 2.2; RanGTP-Impb inh: 1.1; UCH37 inh: 2.6; Beta apoptosis: -9; Calb FLC: -11; T cruzi inh: 2; Beta2AR agonist: 1; Bfl-1 A1 inh: -0.2

Results for CNc1c([N+](=O)[O-])cnn1-c1ccc(Cl)cc1Cl ?
LANA-H2A inh: 3.5; RanGTP-Impb inh: 3.1; UCH37 inh: 10; Beta apoptosis: -15; Calb FLC: 5; T cruzi inh: -5; Beta2AR agonist: 8; Bfl-1 A1 inh: -0.5

Results for COC(=O)/C(=C\C(=O)c1ccccc1)Nc1cccc(C(F)(F)F)c1 ?
LANA-H2A inh: -2.4; RanGTP-Impb inh: 1.4; UCH37 inh: 3.0; Beta apoptosis: 0; Calb FLC: 5; T cruzi inh: -20; Beta2AR agonist: 6; Bfl-1 A1 inh: 1.4

What do the screens show for `N#Cc1cn(-c2ccccc2)nc1-c1ccc2c(c1)OCCO2`?
LANA-H2A inh: 8.7; RanGTP-Impb inh: 1.7; UCH37 inh: -1.6; Beta apoptosis: 4; Calb FLC: -2; T cruzi inh: -20; Beta2AR agonist: 13; Bfl-1 A1 inh: -1.0

How did CCOc1ccc(/C=C2\SC(N3CCc4ccccc4C3)=NC2=O)cc1 do in these assays?
LANA-H2A inh: 6.1; RanGTP-Impb inh: -2.6; UCH37 inh: 5.7; Beta apoptosis: -9; Calb FLC: 4; T cruzi inh: 10; Beta2AR agonist: 68*; Bfl-1 A1 inh: -1.5

Results for O=C(COc1ccccc1F)NCc1nc2ccccc2[nH]1 ?
LANA-H2A inh: -3.2; UCH37 inh: 6.0; Beta apoptosis: -12; Calb FLC: 15; T cruzi inh: -6; Beta2AR agonist: 0; Bfl-1 A1 inh: 0.5

What do the screens show for `CCCCn1nc(C(=O)NC2=NCCS2)c2ccccc2c1=O`?
LANA-H2A inh: -1.2; RanGTP-Impb inh: -0.8; UCH37 inh: 1.7; Beta apoptosis: -2; Calb FLC: 23; T cruzi inh: -5; Beta2AR agonist: -8; Bfl-1 A1 inh: 2.2

Results for CC(C)c1ccc(C(O)P(=O)(OC2CCCCC2)OC2CCCCC2)cc1 (configuration not stated) ?
LANA-H2A inh: 2.2; RanGTP-Impb inh: 1.3; UCH37 inh: 5.4; Beta apoptosis: 4; Calb FLC: 6; T cruzi inh: 34; Beta2AR agonist: 11; Bfl-1 A1 inh: -0.4

Results for NC(=O)CC[C@@H]1NC(=O)[C@H](CO)NC(=O)c2cc([N+](=O)[O-])cc(I)c2NCC[C@@H](C(N)=O)NC1=O ?
LANA-H2A inh: -5.9; RanGTP-Impb inh: -1.2; UCH37 inh: 5.5; Beta apoptosis: -6; Calb FLC: 0; T cruzi inh: -12; Beta2AR agonist: 1; Bfl-1 A1 inh: 1.2

What do the screens show for `O=C1C(NS(=O)(=O)c2ccccc2)=C(N2CCN(c3ccc(F)cc3)CC2)C(=O)c2ccccc21`?
LANA-H2A inh: -6.7; RanGTP-Impb inh: inconclusive; UCH37 inh: 3.7; Beta apoptosis: 3; Calb FLC: 24; T cruzi inh: 8; Beta2AR agonist: 9; Bfl-1 A1 inh: -0.2

How did Cc1ccc(NC(=O)C(C)N2C(=O)c3ccccc3C2=O)nc1 (configuration not stated) do in these assays?
LANA-H2A inh: -0.4; RanGTP-Impb inh: 2.9; UCH37 inh: 4.7; Beta apoptosis: -1; Calb FLC: 3; T cruzi inh: -14; Beta2AR agonist: 5; Bfl-1 A1 inh: 0.2

High-throughput results: PubChem, several laboratories
